Assay outcomes from PubChem.
S aureus helic = S. aureus DNA helicase inhibition. purified S. aureus helicase, fluorescence unwinding assay; about half of the hits fall short of the stated cut. inhibition, %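 (tested at about 80 µM)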. hit rate 0.05% among 120,000. AID 485395;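 active means both duplicates at 50% or more, or one of them with a favoured structure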;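 further: 0% = mean of negative control wells and 100% = mean of positive control wells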
MgrA-DNA mod = modulators of Staphylococcus aureus MgrA DNA binding. fluorescence polarization. inhibition, %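 (about 10 µg/mL by stock and volumes)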. hit rate 0.13% among 84,000. AID 602314;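 active means above 50% in either of two replicates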;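 further: 0% = protein plus DNA without compound and 100% = DNA alone without protein; higher means less MgrA bound to DNA so lower polarization; one replicate is shown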
Active calls of the source: *; · = no result given. A portion of the library. The share of hits here may be higher or lower than overall.

SMILES,S aureus helic,MgrA-DNA mod
CC1CCC(NC(=O)c2ccc(N3C(=O)CCC3=O)cc2)CC1 (stereo not drawn),-7,·
N#Cc1cccnc1N1CCN(C(=O)Nc2cccc3ccccc23)CC1,·,-1.4
CN1CCC/C1=C1\C(=O)N(c2ccccc2)N=C1NC(=O)Nc1cccc(Cl)c1,4,·
OCCN=c1scc(-c2ccc(Br)cc2)n1-c1ccccc1,16,·
COC(=O)C1Cc2ccccc2CN1S(=O)(=O)c1ccc(F)cc1 (stereo not drawn),-25,·
Cn1nc(NC(=O)C(C)(C)C)c2c(F)cccc21,·,-1.4
Cn1c(-c2sc(=S)n(-c3ccccc3)c2N)nc2ccccc21,4,·
CCCc1c(C(=O)N(Cc2ccccc2)Cc2cccs2)cnn1-c1ccccc1,·,0.6
COc1cccc(-c2nc3ccccc3c(=O)n2NC(=O)c2cc3cc(Br)ccc3oc2=O)c1,·,-2.4
CCC(=O)N/C(N)=N/c1nc2ccccc2o1,14,·
O=C(CSc1ccccn1)c1cc(Cl)sc1Cl,·,-0.7
Clc1ccccc1OCCCN1CCNCC1,5,·
O=C(OCc1ccc(Br)cc1)C1CCCCN1S(=O)(=O)c1ccc(F)cc1 (stereo not drawn),10,0.3
Cc1ccc(C(CC(=O)N2CCC(C)CC2)N2Cc3ccccc3C2=O)cc1 (stereo not drawn),-15,·
Cc1ccc2nc(SCC(=O)NC(=O)C(C)(C)C)[nH]c2c1,7,·
Cc1ccc2cccc(OCC(=O)c3ccc(C)c(C)c3)c2n1,5,·
O=[N+]([O-])c1cccnc1NCc1cccs1,·,2.7
COc1ccc2c(c1)N(C)/C(=C1/SC(=S)N(C)C1=O)S2,-1,3.7
CCOc1ccccc1C1C(C#N)=C(N)SC(N)=C1C#N,-83,·
O=[N+]([O-])c1cccnc1ON=C(c1cccs1)c1cccs1,·,-1.5
O=C(Nc1ccccc1)C1CC(=O)N(c2ccccc2)C1 (stereo not drawn),5,0.5
CN(c1ccc(F)cc1)S(=O)(=O)N1CCCC(C(=O)N2CCN(c3ncccn3)CC2)C1 (stereo not drawn),-14,·
CSc1nc2ccccc2n1CN1CCN(S(=O)(=O)c2ccccc2C#N)CC1,6,·
O=C(CCc1ccccc1)Nc1ccc(C(=O)OC2CCCCC2)cc1,5,-1.6
CC1(C)CC(=O)C2=C(C1)NCN(CCCN1CCOCC1)C2,4,1.1
O=c1cc(NCc2ccccc2)n(-c2ccccc2)c(=O)n1-c1ccccc1,·,-0.5
N#CCSc1nc(C2CC2)cc(-c2ccc(F)cc2)c1C(N)=O,4,6.1
NC(=NC(=O)c1cnccc1C(F)(F)F)c1ccccc1,·,-0.7
CC(C)n1c(C(O)c2ccc(N(C)C)cc2)nc2ccccc21 (stereo not drawn),-15,·
Oc1ccc2ccccc2c1C1Nc2ccccc2-n2cccc21 (stereo not drawn),·,7.1
c1ccc2c(NC3CC3)nc(N3CCCC3)nc2c1,16,8.7
CCN(CC)c1ncnc2c1nnn2Cc1ccccc1,·,2.5
CCCCn1c(=O)[nH]c(=O)c2c1nc(-c1ccc(-c3ccc(Cl)cc3)o1)n2C,5,·
C=CCNc1nc(SC)nc2ccccc12,·,-1.1
O=C1C2=C(Nc3ccccc3SC2c2ccsc2)c2ccccc21 (stereo not drawn),9,-0.7
O=C(OCc1cn(-c2ccccc2)nc1-c1ccccc1)c1ccco1,-9,·
c1ccc(CSc2ncnc3c2oc2ccccc23)cc1,3,0.2
CCOC(=O)c1cc(S(=O)(=O)N2CCN(c3ccccc3F)CC2)cn1C,-11,·
CC(=O)OC(COc1ccccc1C)Cn1cnc2ccccc21 (stereo not drawn),9,·
CC(Oc1cccc(Cl)c1)c1nc(-c2ccccc2)no1 (stereo not drawn),14,·
Cc1cc(C(=O)Nc2ccccc2)c(C)o1,·,0.8
CCN(C(=O)c1ccc2c(=O)n3c(nc2c1)CCCCC3)c1ccccc1,-2,·
CC(=O)Oc1ccccc1C(=O)N1CCN(c2cccc(Cl)c2)CC1,-15,-0.2
CN(C)S(=O)(=O)c1ccc(C(=O)NC2=N/C(=C(/C#N)C(=O)N3CCCCC3)c3ccccc32)cc1,-2,·
CCCCCn1nnc2c(=O)oc3ccccc3c21,-13,·
CN(C)Cc1c(O)ccc2occ(C(=O)c3cccc(Br)c3)c12,-6,2.2
CCC(C)CCCNc1nnc(SCC(=O)c2nnc(-c3ccccc3)o2)s1 (stereo not drawn),-7,·
COc1ccc(C2C(C(=O)N3CC(C)CC(C)C3)CCC(=O)N2c2cc(OC)c(OC)c(OC)c2)cc1 (stereo not drawn),-10,·
CC(=O)Nc1ccc(S(=O)(=O)N(c2ccc(F)cc2F)S(=O)(=O)c2ccc(NC(C)=O)cc2)cc1,·,0.9
COC(=O)c1sc(N)c(C(=O)OC)c1COC(=O)CCN=C1NS(=O)(=O)c2ccccc21,16,·
O=C(O)c1ccc(C23CC4CC(CC(C4)C2)C3)o1,7,-2.8
CCCCc1c(C)[nH]c2ccccc2c1=O,11,-0.4
CCCNC(=O)C1CCN(c2nn3c(=O)cc(C)nc3s2)CC1,11,1.6
CN(C(=O)COC(=O)c1nccnc1N)c1ccccc1,6,·
O=C1c2ccccc2S(=O)(=O)N1c1ccccc1F,14,·
O=S(=O)(Nc1cccc(Cl)c1)c1cnc[nH]1,16,·
CS(=O)(=O)Nc1cccc(C(=O)OCC(=O)c2cccs2)c1,23,·
CCN1C(=O)CC(c2ccccc2)Sc2ccccc21 (stereo not drawn),-14,·
CCOC(=O)C(CCC(=O)O)(CCC(=O)O)C(=O)OCC,·,-2.1
CNC(=O)NC(=O)COc1ccc(Oc2ccccc2)cc1,13,·

New compounds follow:
SMILES,S aureus helic,MgrA-DNA mod
O=C1C2C(c3ccccc3)OC3(C(=O)c4ccccc4C3=O)C2C(=O)N1C1CCCCC1 (stereo not drawn),0,1.1
COc1ccc(NC(=O)C2CC(=O)N/C(=N/N=C(\C)c3ccccc3)S2)cc1 (stereo not drawn),17,-4.2
CCc1ccc(CN(Cc2cn[nH]c2-c2ccc(OC)cc2)C(=O)Nc2ccc3c(c2)OCCO3)cc1,6,-2.6
Cc1ccsc1CNCC1CCCO1 (stereo not drawn),-15,2.0
Cc1ccc2c(c1)N(CCC(=O)NCc1ccccc1)C(=O)CO2,10,·
CCCn1c(C(O)c2ccc3c(c2)OCO3)nc2ccccc21 (stereo not drawn),-8,0.1
Cc1ccc(C)c(C(=O)C(C)OC(=O)c2cccn2C)c1 (stereo not drawn),27,·
CC(C)NC(=O)/C(C#N)=C/c1nn(Cc2ccccc2)cc1-c1cccnc1,-9,·
CCOC(=O)c1ccccc1NS(=O)(=O)c1ccc2c(c1)OCCO2,4,0.5
CC1CC(C)CN(c2nc(Nc3ccccc3)c3cnn(C)c3n2)C1 (stereo not drawn),22,·
CC(=O)Nc1ccccc1I,·,0.3
CCC(=O)Nc1ccc(C(=O)Nc2ccc(S(=O)(=O)N3CCCCC3)cc2)cc1,6,1.9
COc1ccccc1C1CCN(Cc2cccc3ccccc23)CC1,·,-2.5
Cn1ncc(C(=O)O/N=C/c2c(F)cccc2Cl)c1-n1cccc1,·,0.8
COCCNC(=S)Nc1ccn(C)n1,10,-1.6
CCOC(=O)c1sc(S(N)(=O)=O)c(C(=O)OCC)c1C,-16,·
CC1CCCN(S(=O)(=O)c2ccc(Cl)cc2)C1 (stereo not drawn),-18,·
CCc1ccc2nc(N3CCCCC3)c(C#N)cc2c1,21,2.3
COc1ccc(N/C=C2/CCCCC2=O)cc1,-3,6.7
O=C(COC(=O)CCc1c[nH]c(=O)[nH]1)Nc1ccccc1,3,·

Grouped by structure, the compounds so far with a tert-butyl group.
SMILES,S aureus helic,MgrA-DNA mod
Cn1nc(NC(=O)C(C)(C)C)c2c(F)cccc21,·,-1.4
Cc1ccc2nc(SCC(=O)NC(=O)C(C)(C)C)[nH]c2c1,7,·

The listing picks up, starting 2 compounds before the break.
SMILES,S aureus helic,MgrA-DNA mod
COc1ccc(N/C=C2/CCCCC2=O)cc1,-3,6.7
O=C(COC(=O)CCc1c[nH]c(=O)[nH]1)Nc1ccccc1,3,·
O=C(Cn1cccc1)N1CCN(c2ccccc2)CC1,10,·
CCC(CC)C(=O)NCCc1cc2ccc(OC)cc2[nH]c1=O,-12,·
CCSCCOC(=O)C1=C(C)NC2=C(C(=O)CC(c3ccccc3)C2)C1c1ccc(OC)cc1OC (stereo not drawn),·,-1.6
CCCCN(C)C(=O)c1cn(CC(C)C)c(=O)c2cc(OC)c(OC)cc12,-1,·
CC(CCc1ccccc1)NC(=O)CCc1nc(-c2ccccc2F)no1 (stereo not drawn),-1,·
CN(CC(=O)N1CCc2ccccc21)S(=O)(=O)c1cccc2cccnc12,6,5.6
Cc1ccc(SCCC(=O)c2cccs2)cc1,·,-5.2
O=C(OCc1ccccc1)C1=NNC2C(=O)N(Cc3ccccc3)C(=O)C12 (stereo not drawn),14,-8.0
CN(C1CCCC1)C1CCN(C(=O)CNC(=O)/C=C/c2ccccc2F)CC1,3,·
CC(C)Cn1c(=O)oc2ccccc21,12,·
COc1ccc(CNn2cnnc2)c(O)c1,-3,14
Cc1ccc(C=Nc2cccc(Cl)c2)cc1,0,-0.3
CN(Cc1ccccc1)C(=O)c1ccc2c(c1)NC(=O)C(N1CCOCC1)S2 (stereo not drawn),18,·
O=C(O)c1c2c(nc3ccc(Br)cc13)CCCC2,12,0.6
CCc1cccc(NC(=O)C2COc3ccccc3O2)c1 (stereo not drawn),-1,·
O=c1c(=NNc2ccc(S(=O)(=O)N3CCOCC3)cc2)c(=O)c2ccccc12,7,·
CCCOc1ccc(OCCSc2nc(N)cc(=O)[nH]2)cc1,5,1.6
COc1ccc(CNCCCn2ccnc2)c(OC)c1,11,4.5
CCOC(=O)C1=C(C)N=c2s/c(=C/c3ccccc3OC(C)=O)c(=O)n2C1c1ccc(OC(C)=O)c(OC)c1 (stereo not drawn),·,-0.3
CCN1CCCC1Cn1c(=S)[nH]c2ccccc2c1=O (stereo not drawn),8,1.1
CC(C)OC(=O)C(C)n1cnc2sc(-c3ccccc3)cc2c1=O (stereo not drawn),0,-1.1
CCCCn1c(SCC(=O)NC)nc2ccccc2c1=O,11,·
O=C(O)CCCn1ccc2cc(S(=O)(=O)N3CCCC3)ccc21,8,·
NC(=O)C[n+]1cccc(/C=N/O)c1,6,·
CCNC(=O)c1ccc(-n2c(C)ccc2C)cc1,29*,·
CCOC(=O)C1=C(C)NC(=S)NC1c1ccc(-c2ccccc2Cl)o1 (stereo not drawn),7,4.7
FC(F)(F)c1cccc(N2CCN(Cc3ccoc3)CC2)c1,-3,-3.0
CCCCC1(CC(=O)N2CCOCC2)C(=O)N(c2ccccc2)N(c2ccccc2)C1=O,-1,0.0
CCOC(=O)C1=C(C)N=c2s/c(=C\c3ccc(O)c(OCC)c3)c(=O)n2C1c1ccc2c(c1)OCO2 (stereo not drawn),·,-2.0
O=c1nc2scc(-c3ccccc3)n2c2ccccc12,1,0.4
C1COC2(CCC3(CC2)OCCO3)O1,·,0.5
O=C(CSc1nnc(Cc2cc(=O)[nH]c(=O)[nH]2)n1-c1ccccc1)NC1CCCC1,11,·
Cc1ccc(C(=O)NCCN(C)C)cc1NC1=NC2CS(=O)(=O)CC2S1 (stereo not drawn),-1,8.7
Cc1cccc(C2Nc3ccccc3C(=O)N2CCc2ccccc2)n1 (stereo not drawn),-12,-0.1
COc1ccc(OCC(=O)N2CCN(C(=O)COc3ccccc3)CC2)cc1,32,·
Cn1nc(NC(=O)Cn2ccc(C(F)(F)F)n2)c2ccccc21,·,-2.4
CSc1scc2c1-c1nn(C(=O)c3ccc(Cl)cc3)cc1CC2,·,-0.2
CN1c2ccccc2Sc2ccccc21,-39,·
Cc1ccc(Cl)cc1N1CCN(CCNC(=O)Cn2nc(C)n3c(cc4sccc43)c2=O)CC1,-2,·
O=C(OCCN1C(=O)c2cccc3c(N4CCOCC4)ccc(c23)C1=O)c1ccc(Cl)cc1Cl,·,3.1
O=C(c1ccc(Cl)c(Cl)c1)N1CCN(c2cccc3scc(-c4ccccc4)c23)CC1,·,0.5
CN1C(=O)CSc2ccc(NC(=O)N3CCOCC3)cc21,0,0.3
O=C(COC(=O)C1CC1)Nc1cc(Cl)cc(Cl)c1,-12,-2.1
CCN(CC)C(=O)CSC1=Nc2ccccc2C2=NC(Cc3c[nH]c4ccccc34)C(=O)N12 (stereo not drawn),0,1.4
CSc1cccc(NC(=O)Cn2nc(C)c(Oc3ccccc3)c2C)c1,·,0.8
CCn1c2ccccc2c2nn(C)c(=N)nc21,-6,-0.8
Cc1occc(=O)c1OC(=O)c1ccc(C(C)(C)C)cc1,2,·

Part of the list above in another layout.
Every second line gives: S aureus helic	MgrA-DNA mod
O=C(c1ccc(Cl)c(Cl)c1)N1CCN(c2cccc3scc(-c4ccccc4)c23)CC1
 : ·	0.5
CN1C(=O)CSc2ccc(NC(=O)N3CCOCC3)cc21
 : 0	0.3
O=C(COC(=O)C1CC1)Nc1cc(Cl)cc(Cl)c1
 : -12	-2.1
